# Screening data (PubChem)
# KCNQ2 enhance – KCNQ2 (rat) channel potentiation | CHO-K1 KCNQ2, FluxOR thallium flux fluorescence; active compounds read high | B-score at 10 µM | 310,000 tested, 0.54% active | AID 2239;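 active = fluorescence ratio B-score at least 3 SD of library B-scores, with initial fluorescence B-score within 3 SD, cut at about 5.3 in these data; same plate scores as AID 2156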;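 note: B-score of peak minus minimum over baseline fluorescence ratio after K+ and Tl+ stimulus; positive B-score means potentiation of KCNQ2 with more thallium influx and brighter signal; only the inactives scoring about 0 or higher are listed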
# Target sequence (O88943 whole entry, looked up): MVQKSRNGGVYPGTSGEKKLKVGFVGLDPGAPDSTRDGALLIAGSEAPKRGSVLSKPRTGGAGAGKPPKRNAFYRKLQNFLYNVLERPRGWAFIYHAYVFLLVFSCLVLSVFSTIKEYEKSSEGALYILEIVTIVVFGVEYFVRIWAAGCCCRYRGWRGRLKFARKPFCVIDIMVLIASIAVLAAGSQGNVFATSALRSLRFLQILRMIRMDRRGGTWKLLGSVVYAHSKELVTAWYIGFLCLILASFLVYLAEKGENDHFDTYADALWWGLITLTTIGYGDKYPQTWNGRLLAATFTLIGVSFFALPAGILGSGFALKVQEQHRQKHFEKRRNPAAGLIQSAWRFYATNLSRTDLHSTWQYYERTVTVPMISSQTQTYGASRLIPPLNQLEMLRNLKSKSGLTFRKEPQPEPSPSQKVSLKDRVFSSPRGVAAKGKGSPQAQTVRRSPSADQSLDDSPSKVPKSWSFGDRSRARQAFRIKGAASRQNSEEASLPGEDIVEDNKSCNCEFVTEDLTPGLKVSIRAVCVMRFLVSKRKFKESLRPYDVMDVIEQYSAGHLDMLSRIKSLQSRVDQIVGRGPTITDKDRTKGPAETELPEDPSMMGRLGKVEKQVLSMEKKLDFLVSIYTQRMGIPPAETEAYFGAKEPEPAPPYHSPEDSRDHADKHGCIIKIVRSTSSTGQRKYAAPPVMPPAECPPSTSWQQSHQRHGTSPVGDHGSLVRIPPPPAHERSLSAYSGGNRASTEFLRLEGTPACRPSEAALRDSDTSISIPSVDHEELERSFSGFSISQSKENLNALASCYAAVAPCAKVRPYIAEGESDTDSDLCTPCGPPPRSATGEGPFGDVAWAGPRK
# KCNQ2 enhance baseline – second read-out of KCNQ2 enhance, no call of its own (marks repeat the call); B-score; compound at 10 µM; measured here: initial fluorescence intensity artifact check;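 brightness before thallium and not channel activity; 0 = typical well and far values either way flag optical interference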
# An asterisk follows results filed as active.
# Values run as follows: KCNQ2 enhance	KCNQ2 enhance baseline
> O=C(CSc1nnc2c(Cl)cc(C(F)(F)F)cn12)Nc1ccc2c(c1)OCO2
  1	1.34
> COc1cccc(C(=O)NC2(C(F)(F)F)N=C3SCCN3C2=O)c1 (stereo unspecified)
  0.75	-0.29
> CCc1ccc(OCC(O)CN2CCN(c3ccc(OC)cc3)CC2)cc1 (stereo unspecified)
  1.12	-0.02
> Cc1ccc2nc3c(cc(C(=O)NC4CCCCC4)c(=N)n3C3CCCCC3)c(=O)n2c1
  2.36	1.14
> Cc1cc(=O)oc(C)c1C(=O)NCCc1ccc(F)cc1
  1	2.02
> Cc1ccc(S(=O)(=O)CC(CN2CCOCC2)N2CCOCC2)cc1 (stereo unspecified)
  0.71	4.64
> Cc1nc2c(C)cccn2c(=O)c1NC(=O)c1cccc2ccccc12
  0.29	-0.41
> O=C(Cn1ccc2ccccc2c1=O)NCCC(=O)N1CCN(c2cccc(C(F)(F)F)c2)CC1
  0.9	-0.89
> O=S(=O)(Cc1ccc(Cl)cc1)N1CCN(Cc2ccc3c(c2)OCO3)CC1
  1.24	-2.09
> C#CCOCCOCCOCCNc1nc(N2CCN(C(=O)[C@H]([C@@H](C)CC)n3cc(CCCN=C(N)N)nn3)CC2)nc(N2CCN(C(=O)[C@H]([C@@H](C)CC)n3cc(CCCN=C(N)N)nn3)CC2)n1
  1.06	1.49
> COc1ccccc1NC(=O)CSc1nnc(Cn2c(=O)sc3ccccc32)n1C
  1	0.16
> COc1ccccc1CCc1nnc(N)s1
  0.07	-1.41
> O=C1C=CN(C(=O)Oc2ccccc2)CC1
  1.43	-1.55
> CCNc1nc(NC(C)C)nc(OCCNS(=O)(=O)c2cc(C)ccc2C)n1
  0.1	-1.05
> CCc1ccc(CNC(=O)C2CCN(S(=O)(=O)N3CCCC3)CC2)cc1
  0.86	1.48

# Values run as follows: KCNQ2 enhance	KCNQ2 enhance baseline
> C=C1C2(C(=O)NCc3ccco3)CCC(C2)C1(C)C (stereo unspecified)
  0.58	-1.19
> Cc1nc(NC(=O)c2ccc([N+](=O)[O-])cc2Cl)sc1C(=O)N(C)C
  1.81	0.84
> CCCn1c(C)cc(=O)c2cc(NC(=O)c3cnccn3)ccc21
  0.54	-0.27
> COc1cc(-c2onc3ccc(Br)cc23)cc(OC)c1OC
  0.34	-0.11
> Cc1ccc(S(=O)(=O)N2CCN(C(=O)CCC(=O)N3CCc4ccccc43)CC2)cc1
  0.41	-2.07
> COC(=O)[C@@H](NC(=O)N1CCC(Cc2ccccc2)CC1)C(C)C
  0.27	0.38
> O=C(CSCc1c(F)cccc1F)Nc1ccccc1
  0.02	-0.1
> CC1=C(C(=O)OCCCCCl)C(c2cc3c(cc2Br)OCO3)NC(=O)N1 (stereo unspecified)
  0.34	0.58
> COc1ccc(-c2c(C)oc3c(CN4CCOCC4)c(O)ccc3c2=O)cc1OC
  0.04	-0.79
> CCOC(=O)c1c(NC(=O)CSc2nnc(Cc3csc(N)n3)n2C)sc(C)c1C
  0.9	-2.4
> Cc1ccc2nc(NC(=O)COC(=O)c3ccncc3)sc2c1
  1.04	0.67
> CC(=O)Nc1ccc(S(=O)(=O)Nc2cccc(-c3cn4cccnc4n3)c2)cc1
  0.09	-0.87
> O=C(Cn1ncc(N2CCOCC2)c(Br)c1=O)c1ccc(Cl)cc1
  4.19	-1.4
> Cc1ccc(CN2C(=O)CCC2C(=O)NCc2ccco2)cc1 (stereo unspecified)
  1.9	0.76
> Cn1ccnc1SCCNC(=O)C1CCC(=O)N(Cc2ccc(Cl)cc2)C1 (stereo unspecified)
  0.62	-0.52

# Values run as follows: KCNQ2 enhance	KCNQ2 enhance baseline
> O=C(O)c1ccc2c(c1)C(=O)N(c1cc([N+](=O)[O-])ccn1)C2=O
  0.45	2.77
> O=C1Nc2cc(Cl)c(Cl)cc2N(O)N1c1cccc(Cl)c1
  0.02	1.9
> O=C(Cc1cccc2ccccc12)NNC(=O)Nc1cccc(Cl)c1
  0.07	-0.83
> Cc1ccccc1N(C(=O)Cn1nnc(-c2ccc(F)cc2)n1)C(C(=O)NC(C)(C)C)c1ccncc1 (stereo unspecified)
  1.01	-1.01
> O=C(CN(Cc1ccccc1)C(=O)CCC(=O)Nc1ccccn1)NCc1ccco1
  0.59	-1.13
> COc1ccccc1CNC(=O)c1ccc(CS(=O)(=O)c2ccccc2)o1
  0.25	0.11
> CSC1=NC2(CC(c3ccccc3)Oc3cc(O)ccc32)CC(C)(C)N1 (stereo unspecified)
  0.82	0.57
> CSCCC(NC(=O)CCN1C(=O)c2ccccc2C1=O)C(=O)O (stereo unspecified)
  0.03	1.63
> CC(=O)c1cccc(NC(=O)COc2ccc(S(=O)(=O)N3CCOCC3)cc2)c1
  1.06	0.52
> C/C(CC(=O)Nc1ccc(Cl)cc1Cl)=N\NC(=O)c1ccncc1
  1.2	-0.02
> CCn1c(SCC#N)nc2ccccc2c1=O
  0.19	-0.76
> CC1Sc2ccc(S(=O)(=O)CCC(=O)NC3CCCCCC3)cc2NC1=O (stereo unspecified)
  1.01	0.3
> CC1CCC2(CC1)NC(=O)N(CC(=O)Nc1ccc(N3CCOCC3)cc1)C2=O (stereo unspecified)
  1.44	0.57
> CSc1cccc(N/C(=N/S(=O)(=O)c2ccccc2)NN)c1
  0.21	-0.39
> O=C1CC(C(=O)Nc2cccc3ccccc23)C2(CCCC2)O1 (stereo unspecified)
  0.37	-0.73

# Values run as follows: KCNQ2 enhance	KCNQ2 enhance baseline
> O=C(NCCCCC(NC(=O)c1ccc([N+](=O)[O-])cc1)C(=O)O)c1ccc([N+](=O)[O-])cc1 (stereo unspecified)
  1.37	0.57
> COc1cc(NC(=O)CSc2ccc3c(c2)OCCO3)cc(OC)c1OC
  0.3	-1.16
> COC(=O)c1ccc(N/C=C\C(=O)c2ccc3c(c2)OCO3)cc1
  0.21	-0.03
> COc1ccc(NS(=O)(=O)c2ccc3c(c2)NC(=O)CO3)cc1
  0.51	-1.08
> O=C(Nc1ccccc1)NC1(C(=O)N2CCN(c3ncccn3)CC2)CCCCC1
  0.49	-0.45
> COc1ccc(C(=O)NNC2=NS(=O)(=O)c3ccccc32)cc1OC
  0.96	1.28
> CCCCC(=O)Nc1nn(CC(C)C)c2nc3ccccc3cc12
  1.81	-0.62
> CCN1CCc2nc(N)sc2C1
  0.74	0.93
> COc1ccc(C(=O)NC(=C(Cl)Cl)S(=O)(=O)c2ccc(C)cc2)cc1
  0.13	-0.41
> Cc1ccc(NC(=O)c2cc(S(=O)(=O)Nc3ccc(C)cc3)cs2)cc1
  0.17	1.24
> COCCn1c(-c2ccccc2Cl)nc2c(c(=O)c3ccccc3n2C)c1=O
  0.05	1.06
> CC(Oc1ccc(Br)cc1Br)C(=O)Nc1cccnc1 (stereo unspecified)
  0.03	-0.45
> COc1ccccc1-c1cc(C(=O)N2CCCC2)no1
  0.01	0.25
> COc1ccc(NS(=O)(=O)c2cccc(C(=O)N3CCN(c4ccccc4O)CC3)c2)cc1
  0.03	0.07
> CC(C)(C)SCCNC(=O)c1ccc(Cl)c(S(=O)(=O)N2CCOCC2)c1
  1.55	-1.5

# Values run as follows: KCNQ2 enhance	KCNQ2 enhance baseline
> CN(C(=O)CN1C(=O)NC(C)(CCc2ccccc2)C1=O)c1ccccc1 (stereo unspecified)
  1.16	1.23
> Cc1c(Cl)cccc1NC(=O)CC1NCCNC1=O (stereo unspecified)
  0.27	1.48
> N#C/C(=C\c1c[nH]c2ccccc12)C(N)=O
  1.26	-0.42
> CC1CCN(CCOc2ccccc2-c2ccccc2)CC1
  1.43	-2.3
> CC(=O)C(=Cc1ccc(O)cc1)C(C)=O
  0.01	-2.04
> CCOC(=O)N1CCN(C(=O)CCN2C(=O)COc3ccc(C)cc32)CC1
  1.03	-1.56
> CCOC(=O)c1c(N)nn(C(=O)c2ccccc2)c1-c1ccccc1
  2.43	2.52
> Cc1cc(C)cc(NC(=O)CC2NCCNC2=O)c1 (stereo unspecified)
  0.01	0.07
> Cc1nn(Cc2ccc([N+](=O)[O-])cc2)c(=O)n1-c1ccc(Cl)cc1
  0.4	-1.83
> COc1cc(C(=O)NC2CCCc3c2cnn3-c2ccccc2F)cc(OC)c1OC (stereo unspecified)
  1.39	-0.08
> CC(=O)NCCCc1nc2ccccc2n1Cc1ccc(C)cc1
  1.26	-1.62
> Cc1ccc(NC(=O)CSc2nnc(C)c(=O)n2N)cc1
  0.02	-1.38
> CC12CCC(=O)N1C(C(=O)Nc1ccc(SC(F)F)cc1)CS2 (stereo unspecified)
  0.55	-3.76
> O=C(c1ccc(N2CCCCC2)c([N+](=O)[O-])c1)N1CCOCC1
  1.11	0
> Cc1cc(Cl)c(S(=O)(=O)N2CCCC2)cc1OCC(=O)NC1CCCCC1
  27.4*	-0.44*

# Entries of single compounds from above. Order of values: KCNQ2 enhance | KCNQ2 enhance baseline
# CCOC(=O)c1c(N)nn(C(=O)c2ccccc2)c1-c1ccccc1 reads 2.43 | 2.52
# CN(C(=O)CN1C(=O)NC(C)(CCc2ccccc2)C1=O)c1ccccc1 (stereo unspecified) reads 1.16 | 1.23
# CC12CCC(=O)N1C(C(=O)Nc1ccc(SC(F)F)cc1)CS2 (stereo unspecified) reads 0.55 | -3.76

# The list continues.
# Values run as follows: KCNQ2 enhance	KCNQ2 enhance baseline
> COc1ccc(NC(=O)CCCNC(=O)c2ccc(Cl)cc2)cc1OC
  0.17	0.06
> COc1ccc(NC(=O)NCc2ccccn2)c(OC)c1
  0.07	-1.33
> CCCOc1cccc(C(=O)N(Cc2ccco2)C2CCS(=O)(=O)C2)c1 (stereo unspecified)
  0.15	1.29
> COc1cc(CC(=O)O)ccc1OCc1ccccc1
  0.07	-1.43
> CCCc1ccc(OCc2ccc(C(=O)N3CCSCC3)o2)cc1
  0.38	-0.66
> CCOC(=O)c1ccc(N2C=C(C(=O)OC)C(c3cccc(O)c3)C(C(=O)OC)=C2)cc1
  0.36	1.69
> CCOC(=O)c1c(C)[nH]c(C)c1C(=O)COC(=O)c1ccc(S(=O)(=O)N(CC)CC)cc1
  0.29	0.7
> Cc1c(C(C)C)c(=O)n(-c2ccc(S(=O)(=O)NC3CCCCC3)cc2)n1C
  0.43	0.58
> Cc1cc(Cl)ccc1OCC(=O)N1CCN(c2ncccn2)CC1
  0.74	-1.07
> CCC1(c2ccc(F)cc2)NC(=O)N(CC(=O)N2CC(=O)Nc3ccccc32)C1=O (stereo unspecified)
  0.36	0.67
> O=c1c2[nH]cnc2n(-c2ccc(F)cc2)c(=O)n1Cc1ccccc1
  0.73	0.62
> COC(=O)c1cc(C(=O)Nc2nnc(CC(C)(C)C)s2)cc([N+](=O)[O-])c1
  2.07	-0.58
> COc1ccccc1N1CCN(c2nnc(-c3ccc(F)cc3)c3ccccc23)CC1
  0.49	-0.8
> COc1cc(/C=C/C(=O)N(C)c2ccccc2C(=O)O)cc(OC)c1OC
  1.53	0.77
> Cc1cccc2c1[nH]c1nc(N/N=C\c3ccco3)nnc12
  0.28	-1.38

# Values run as follows: KCNQ2 enhance	KCNQ2 enhance baseline
> Cc1ccc(CCNC(=O)CN2C(=O)COc3ccc(S(=O)(=O)N4CCC(C)CC4)cc32)cc1
  1.76	0.12
> O=S1(=O)N=C(N2CCOCC2)c2ccccc21
  1.42	0.75
> COCCC1CCCCN1Cc1cn(-c2ccccc2)nc1-c1ccc2c(c1)OCO2 (stereo unspecified)
  0.01	2.04
> C=CCNC(=O)NC(=S)c1ccccc1
  0.01	-0.31
> O=C1CCC(=O)N1c1ccc(S(=O)(=O)N2CCCC2)cc1
  1.19	-1.56
> Cc1cccc(C2NC(=O)c3c(sc(C)c3C)N2)c1O (stereo unspecified)
  1.88	1.26
> CCOc1cc(/C=N/NC(=O)c2cccnc2)ccc1OC(=O)c1ccco1
  0.74	-0.81
> O=c1oc2ccccc2c(Nc2ccc(O)cc2)c1[N+](=O)[O-]
  0.01	0.09
> CCOc1cc(/C=N/NC(N)=O)ccc1OC(=O)c1ccc(C)cc1
  0.46	-0.73
> COc1ccc(NC2CCCN(C(=O)CCC(=O)c3ccc(F)cc3)C2)cc1 (stereo unspecified)
  0.05	0.44
> O=C(Nc1ccc(S(=O)(=O)N2CCOCC2)cc1)c1cccc([N+](=O)[O-])c1
  0.73	0.24
> O=C(NC(Cc1ccccc1)C(=O)NCCc1ccccn1)c1ccccc1 (stereo unspecified)
  1.32	0.01
> CSc1ccc(S(=O)(=O)NCC(=O)OCC(=O)N(C)CC(=O)Nc2ccccc2Cl)cc1[N+](=O)[O-]
  0.76	1.93
> CCOc1ccc(C(=O)NC(=S)Nc2ccc(NC(=O)C(C)C)cc2)cc1[N+](=O)[O-]
  1.02	-0.4
> CCCc1cc(Nc2ccc(C)cc2)n2ncnc2n1
  0.85	0.09

# Copied from the list.
# KCNQ2 enhance result of `O=c1oc2ccccc2c(Nc2ccc(O)cc2)c1[N+](=O)[O-]` = 0.01
# KCNQ2 enhance baseline result of `CSc1ccc(S(=O)(=O)NCC(=O)OCC(=O)N(C)CC(=O)Nc2ccccc2Cl)cc1[N+](=O)[O-]` = 1.93
# KCNQ2 enhance result of `Cc1ccc(CCNC(=O)CN2C(=O)COc3ccc(S(=O)(=O)N4CCC(C)CC4)cc32)cc1` = 1.76

# (cont.)
# Values run as follows: KCNQ2 enhance	KCNQ2 enhance baseline
> Cc1ccc(C(=O)Nc2ncnc3sc4c(c23)CCCCC4)cc1
  0.66	1.24
> COc1ccc(NC(=O)CN(C)C(=O)c2cc(S(=O)(=O)N3CCCCCC3)ccc2OC)cc1
  0.39	0.06
> COCCCNC(=O)c1oc2ccc(S(=O)(=O)N(C)C3CCCCC3)cc2c1C
  1.79	-1.54
> COC(=O)C1CC(O)CN1C(=O)NC1CCCCC1 (stereo unspecified)
  0.23	0.64
> CC(NC(=O)CNC(=O)[C@@H]1Cc2ccccc2CN1)c1ccccc1 (stereo partly specified)
  0.11	0.97
> O=C(NC(C(=O)N/N=C/c1c2ccccc2cc2ccccc12)c1n[nH]c(=O)c2ccccc12)c1ccccc1 (stereo unspecified)
  0.7	0.59
> CCCCc1nc(SCC(=O)Nc2cccc(Cl)c2)n[nH]1
  0.29	1.18

# Some of the compounds tested; the hit share may differ from the screen's.
